eIF4H inh = inhibitors of RNA binding by human eIF4H; inhibition, % at 35 µM; actives 0.94% (n = 290,000); AID 2012; eIF4H fluorescence polarization binding assay; Q15056;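 active = 50% or more with normal probe brightness, or confirmed in later tests; about a fifth of its hits are not listed in these tables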;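 also: calls also rest on retests at 20 µM and on dose response follow-up; 0% = protein and probe with vehicle and 100% = probe without protein; strong numbers were not always called active; many hits fall short of the cut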
Env fusion inh = HIV envelope-mediated fusion inhibition; HeLa-JRFL Env/CEM21 cell fusion, luciferase; inhibition, % at 12.3 µM; actives 1.1% (n = 360,000); AID 651610;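 active = mean replicate inhibition score of at least 50 and every replicate individually at or above 50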;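 also: 0% = plate neutral controls and 100% = maraviroc near 300 nM; one replicate is shown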
CSC inhib = blocks cancer stem cells. cancer stem cell-like cells viability, luminescence. actives 1.1% (n = 300,000). inhibition, % at 7.5 µM. AID 2717;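 active = mean at 75% or more and at least half the replicates too; tested in HMLE shEcad cells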;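 also: 0% = median of negative and 100% = median of positive control wells; the first replicate is given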
MT1-MMP act inh = inhibitors of human MT1-MMP activation | actives 0.061% (n = 360,000) | AID 651647 | GFP/RFP ratio change, % at 20 µM | HT1080 RFP-PRO-GFP cells, GFP/RFP ratio fluorescence, overnight; percent of plate control window, DMSO zero | P50281;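 active = GFP/RFP ratio change of at least 30% with cell ATP level not reduced by more than half and red fluorescence within 50% of control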; also: strong numbers were not always called active
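Assay system: RFP-PRO-GFP reporter HT1080 cells; read-out basis: GFP/RFP fluorescence ratio; benchmarks: DMSO wells and RFP-L50D-GFP cells; doses: 20 µM single dose, 1% DMSO; schedule: overnight cell settling, then overnight compound exposure, 37 °C, 5% CO2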
PABP polyA inh = blocks human PABP binding to poly(A) RNA. P11940. fluorescence polarization. inhibition, % at 35 µM. actives 1% (n = 290,000). AID 2014;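 active = 50% or more with normal probe brightness, or confirmed in later tests; about a fifth of its hits are not listed in these tables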;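 also: calls also rest on retests at 20 µM and on dose response follow-up; controls were probe without protein and protein plus probe with vehicle; some compounds called inactive have numbers as strong as hits; many hits fall short of the cut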
Target sequence (P11940 whole entry, looked up): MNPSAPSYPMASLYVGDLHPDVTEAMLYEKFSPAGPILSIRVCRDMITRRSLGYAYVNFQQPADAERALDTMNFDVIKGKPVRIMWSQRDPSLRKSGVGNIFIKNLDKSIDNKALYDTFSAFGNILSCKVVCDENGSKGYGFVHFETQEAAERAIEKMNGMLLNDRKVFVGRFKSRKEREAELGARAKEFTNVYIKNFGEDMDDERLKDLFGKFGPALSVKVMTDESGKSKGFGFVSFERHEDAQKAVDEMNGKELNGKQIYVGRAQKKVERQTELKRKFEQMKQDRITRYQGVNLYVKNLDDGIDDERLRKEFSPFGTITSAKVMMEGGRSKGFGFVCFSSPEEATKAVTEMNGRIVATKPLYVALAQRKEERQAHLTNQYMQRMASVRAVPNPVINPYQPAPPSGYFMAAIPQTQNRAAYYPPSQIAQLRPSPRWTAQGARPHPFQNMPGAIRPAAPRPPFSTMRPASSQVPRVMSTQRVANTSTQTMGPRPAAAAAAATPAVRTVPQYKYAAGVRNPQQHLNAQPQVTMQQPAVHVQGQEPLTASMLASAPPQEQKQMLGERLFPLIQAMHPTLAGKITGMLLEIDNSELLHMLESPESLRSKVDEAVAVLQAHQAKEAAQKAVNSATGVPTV
Yeast UUG start = alters start codon recognition fidelity in yeast; actives 0.13% (n = 350,000); activity score, % at 18.7 µM; AID 602363; S. cerevisiae UUG-firefly luciferase reporter, luminescence/redox ratio;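 active = replicate mean at a twofold rise or more, about +100% in these data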;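 also: firefly luciferase made from a UUG start codon reports start codon fidelity; reporter light over untreated wells divided by growth signal over untreated wells; some hits fall short of that in this replicate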
Rce1 inh = yeast Ras-converting enzyme inhibition; Q03530; yeast membranes, quenched prenylated peptide cleavage fluorescence; calls only; actives 0.27% (n = 290,000);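 active = fall in fluorescence gain of 50% or more versus controls, with final raw signal at or below 3038400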;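 also: plate controls were neutral control wells for no effect and wells lacking membranes for full effect; tested at 10 µM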
Target sequence (Q03530 whole entry, looked up): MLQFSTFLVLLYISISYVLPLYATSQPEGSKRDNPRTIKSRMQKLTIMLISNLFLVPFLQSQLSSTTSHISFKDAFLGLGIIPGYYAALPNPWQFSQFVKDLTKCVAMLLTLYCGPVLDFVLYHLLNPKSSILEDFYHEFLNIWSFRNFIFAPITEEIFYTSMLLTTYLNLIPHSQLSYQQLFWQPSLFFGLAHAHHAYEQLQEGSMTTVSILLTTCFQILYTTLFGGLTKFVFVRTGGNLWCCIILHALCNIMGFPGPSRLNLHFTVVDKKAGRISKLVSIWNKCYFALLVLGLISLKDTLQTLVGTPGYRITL
eIF4H inh retest = second read-out of eIF4H inh, no call of its own (marks repeat the call); inhibition, %; compound at 20 µM; confirmation average;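 mean of two retest wells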
PABP polyA inh retest = second read-out of PABP polyA inh, no call of its own (marks repeat the call); inhibition, %; compound at 20 µM; confirmation repeats;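 mean of two retest wells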
MT1-MMP act inh RFP = recorded beside MT1-MMP act inh, whose call it bears; RFP signal change, %; measured here: RFP expression control read;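 0 = vehicle wells; hits needed this value within 50% of zero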
Starred values were filed as active, the others as inactive; i = inactive; nt = not tested or not shown; + = active, no number.

SMILES	eIF4H inh	Env fusion inh	CSC inhib	MT1-MMP act inh	MT1-MMP act inh RFP	PABP polyA inh	Yeast UUG start	Rce1 inh	others
COc1cccc(CNC(=O)C2CCN(S(=O)(=O)c3ccc4c(c3)OCCO4)CC2)c1	-13	nt	nt	-2	1	-4	8	i
O=C(N/N=C/C1CCCCC1)c1ccccc1-n1cccc1	nt	-6	12	2	1	nt	-24	i
COc1ccc(CCNC(=O)C2CCCN(Cc3nc(-c4cccc(Cl)c4)oc3C)C2)cc1OC (stereo unspecified)	-2	81*	-2	1	-8	8	-16	i
Cc1cccc(CNS(=O)(=O)c2csc(C(N)=O)c2)c1	-10	-1	12	1	0	2	-5	i
O=C(c1ccc([N+](=O)[O-])o1)N(Cc1nnc(-c2ccccc2Cl)o1)C1CC1	nt	-3	7	-2	-3	nt	-10	nt
CCC(C)(C)C1CCC2(CC1)NC(=O)N(CC(=O)N(C)CC(=O)Nc1ccccc1C(F)(F)F)C2=O (stereo unspecified)	2	2	20	0	-18	-3	5	i
CCOc1ccc(NC(=O)CN(C)C(=O)c2cc3c(s2)CCCCC3)cc1OCC	nt	-6	2	2	-4	nt	nt	i
Cc1ccccc1CN1C[C@@H]2C[C@@H](c3ccc4nsnc4c3)N3CCC[C@@]23C1=O	-8	-16	-25	-5	3	-7	nt	i
NC(=O)c1cc(N)ccc1N1CCCC1	-4	-7	0	7	6	2	-7	i
CC(=O)n1c(C=Nc2ccc(Cl)cc2)c(O)c2ccccc21	0	-14	18	-140	1	16	-13	i
Cc1cc(NC2C3CC4CC(C3)CC2C4)n2ncnc2n1 (stereo unspecified)	-20	nt	6	0	-5	-3	12	i
CCS(=O)(=O)c1ccc2oc(Nc3ccc(C(C)(C)C)cc3)nc2c1	3	3	1	-11	-11	-1	-3	i
COCCCNCCCOc1ccc(C(C)(C)c2ccccc2)cc1	-3	14	nt	-3	-2	7	-5	i
CCOC(=O)COn1c(=O)c(-c2ccc(OC)c(OC)c2)[n+]([O-])c2ccccc21	11	nt	-13	nt	nt	4	nt	i
O=C(NCCCn1ccnc1)c1ccc(-c2cccc(C(F)(F)F)c2)o1	nt	9	10	8	-2	nt	-13	nt
O=C1Nc2ccc(Br)cc2C1(O)c1ccccc1 (stereo unspecified)	-6	5	6	0	1	-4	-28	i
COc1ccc(SCCN2CCN(CC(C)C)CCC2=O)cc1	3	-20	15	0	3	-12	-19	i
Cc1ccccc1OCC(=O)OCC(=O)NCc1ccco1	nt	1	-5	3	1	nt	-23	i
CCN1C(=O)c2cccc3c(S(=O)(=O)NC(Cc4c[nH]c5ccccc45)C(=O)O)ccc1c23 (stereo unspecified)	-2	nt	-16	0	5	14	-13	i
O=C1CN(C(=O)COC(=O)CCNS(=O)(=O)c2ccc(Cl)cc2)c2ccccc2N1	-5	-9	-8	2	5	10	-7	i
COc1cccc(/C=C2\SC(=O)NC2=O)c1OCc1ccc(C(=O)O)cc1	13	-15	0	-4	1	2	nt	i
Cn1c(=O)[nH]c(=O)c2c1nc(SCCO)n2Cc1ccccc1Cl	10	-16	-8	0	2	9	-33	i
COc1cccc(C(C)NC(=S)NCc2ccc(F)cc2)c1 (stereo unspecified)	-7	2	8	-4	-4	-10	-18	i
O=C(O)C(c1ccccc1)N1C(=O)c2cccc3cccc(c23)C1=O (stereo unspecified)	-4	-6	0	3	1	12	-16	i
CCN(CC)CCCNc1cc(C)c(C#N)c2nc3ccccc3n12	nt	-55	nt	-8	-5	nt	-23	nt

Arranged by length of the SMILES (ascending): part of the list above.
SMILES	eIF4H inh	Env fusion inh	CSC inhib	MT1-MMP act inh	MT1-MMP act inh RFP	PABP polyA inh	Yeast UUG start	Rce1 inh	others
NC(=O)c1cc(N)ccc1N1CCCC1	-4	-7	0	7	6	2	-7	i
O=C1Nc2ccc(Br)cc2C1(O)c1ccccc1 (stereo unspecified)	-6	5	6	0	1	-4	-28	i
Cc1ccccc1OCC(=O)OCC(=O)NCc1ccco1	nt	1	-5	3	1	nt	-23	i
COCCCNCCCOc1ccc(C(C)(C)c2ccccc2)cc1	-3	14	nt	-3	-2	7	-5	i
Cc1cccc(CNS(=O)(=O)c2csc(C(N)=O)c2)c1	-10	-1	12	1	0	2	-5	i
CCN(CC)CCCNc1cc(C)c(C#N)c2nc3ccccc3n12	nt	-55	nt	-8	-5	nt	-23	nt
CC(=O)n1c(C=Nc2ccc(Cl)cc2)c(O)c2ccccc21	0	-14	18	-140	1	16	-13	i
O=C(NCCCn1ccnc1)c1ccc(-c2cccc(C(F)(F)F)c2)o1	nt	9	10	8	-2	nt	-13	nt
CCS(=O)(=O)c1ccc2oc(Nc3ccc(C(C)(C)C)cc3)nc2c1	3	3	1	-11	-11	-1	-3	i
COc1cccc(/C=C2\SC(=O)NC2=O)c1OCc1ccc(C(=O)O)cc1	13	-15	0	-4	1	2	nt	i
COc1cccc(CNC(=O)C2CCN(S(=O)(=O)c3ccc4c(c3)OCCO4)CC2)c1	-13	nt	nt	-2	1	-4	8	i
O=C(c1ccc([N+](=O)[O-])o1)N(Cc1nnc(-c2ccccc2Cl)o1)C1CC1	nt	-3	7	-2	-3	nt	-10	nt
CCOC(=O)COn1c(=O)c(-c2ccc(OC)c(OC)c2)[n+]([O-])c2ccccc21	11	nt	-13	nt	nt	4	nt	i
Cc1ccccc1CN1C[C@@H]2C[C@@H](c3ccc4nsnc4c3)N3CCC[C@@]23C1=O	-8	-16	-25	-5	3	-7	nt	i
CCN1C(=O)c2cccc3c(S(=O)(=O)NC(Cc4c[nH]c5ccccc45)C(=O)O)ccc1c23 (stereo unspecified)	-2	nt	-16	0	5	14	-13	i
CCC(C)(C)C1CCC2(CC1)NC(=O)N(CC(=O)N(C)CC(=O)Nc1ccccc1C(F)(F)F)C2=O (stereo unspecified)	2	2	20	0	-18	-3	5	i

New compounds follow.
SMILES	eIF4H inh	Env fusion inh	CSC inhib	MT1-MMP act inh	MT1-MMP act inh RFP	PABP polyA inh	Yeast UUG start	Rce1 inh	others
COc1ccc(-c2cc(C(=O)Nc3nc4ccccc4s3)c3ccccc3n2)cc1OC	-1	-3	16	-9	-6	5	nt	i
O=C(CCc1nnc(CCCc2ccccc2)o1)NCC(F)(F)F	-8	3	-5	-1	0	-4	nt	i
O=C(CSCc1ccc(F)cc1)Nc1ccc(F)cc1	-4	-4	-10	2	7	-5	-4	i
CCN(C(=O)c1cc2cc3ccc(C)cc3nc2o1)c1ccc(OC)cc1	-3	nt	19	5	4	14	-11	i
Cc1cccc(NC(=O)CC(C)(C)C)c1	4	-36	-10	-3	1	18	-6	i
CCOC(=O)N1CCN(CC(=O)Nc2ccc(C)c(Br)c2)CC1	3	16	-3	-6	-4	17	-11	i
CCC(C(=O)NC1CCCC1)N(C(=O)Cn1nnc(-c2ccc(C)o2)n1)c1ccc(OC)cc1 (stereo unspecified)	-6	2	-10	-3	1	2	-38	i
CCOC(=O)c1ccc2nc(NC(NC(C)=O)(C(=O)OC)C(F)(F)F)sc2c1 (stereo unspecified)	-6	nt	1	1	-2	-5	6	i
CS(=O)(=O)N(CC(=O)Nc1ccccc1Br)Cc1ccccc1	-9	24	20	-2	0	2	-5	i
CCN(CC)C(=O)C1CCC(CNS(=O)(=O)c2cccc3nsnc23)CC1 (stereo unspecified)	-9	9	nt	-3	-3	-2	-2	i
COC(=O)c1cc(NC(=O)C2(S(=O)(=O)c3ccc(C)cc3)CC2)cc(C(=O)OC)c1	-3	-93	0	3	5	-4	nt	i
Cc1noc(C)c1C(=O)Nc1nc2ccc(F)cc2s1	nt	nt	23	0	-2	nt	-28	nt
CCCCOc1ccc(Cc2c(COCC)[nH]c(=S)[nH]c2=O)cc1	-12	14	28	1	-3	-5	2	+
CCCCNC(=O)CN1CCC2(O)CCCCC2C1c1ccccc1OC (stereo unspecified)	-1	nt	-1	3	8	6	-1	i
COC(=O)c1ccc(CSc2ncnc3ccccc23)o1	-4	33	17	-4	1	2	-19	i
CCN1CCN(C(=O)Cn2nc(C)n3c(cc4c(OC)cccc43)c2=O)CC1	-11	-1	48	4	5	5	-12	i
Cn1c(=O)[nH]c(=O)c2c1nc(N1CCNCC1)n2Cc1cccc2ccccc12	-8	58*	-13	-12	-12	-13	-9	i
CSc1ccc(C2C(C#N)=C(N)N(c3ccccc3)C3=C2C(=O)CCC3)cc1 (stereo unspecified)	-5	nt	-15	-4	-4	8	-13	i
CCCCN1CC(COC)Oc2cccc(F)c2S1(=O)=O (stereo unspecified)	nt	11	nt	1	1	nt	-22	nt
Cc1cc(CNC(=O)COc2ccc(F)cc2Cl)cc(C)c1O	5	-6	7	0	-3	2	-16	i
COC(=O)CSc1snnc1-c1ccc(Cl)cc1Cl	-2	nt	nt	5	3	0	3	i
COc1ccccc1NC(=O)c1nn(-c2ccccc2)ccc1=O	1	nt	nt	4	9	-1	-3	i
Cc1cc(=O)nc2c3ccccc3n(C(C)C(=O)NCCN3CCOCC3)n12 (stereo unspecified)	-6	2	-7	2	3	8	-9	i
CCCc1cc(=O)[nH]c(SCC(=O)N2CCN(S(=O)(=O)c3ccc(C)cc3)C2)n1	-5	-1	5	1	2	4	-8	i
COC(=O)c1sc2ccccc2c1N	5	-25	nt	-2	0	18	4	i
Next structures follow.
SMILES	eIF4H inh	Env fusion inh	CSC inhib	MT1-MMP act inh	MT1-MMP act inh RFP	PABP polyA inh	Yeast UUG start	Rce1 inh	others
COc1ccc(S(=O)(=O)N2CC(=O)Nc3ccccc32)cc1F	0	-9	5	-2	0	-13	-5	i
CCn1c(C)c(C)c2cc(C(=O)NCCN3CCCCCC3)ccc21	-2	5	-1	-1	2	-1	6	i
CN1C(=O)C2(CCCCC2)C1c1ccccc1 (stereo unspecified)	nt	-5	nt	-1	3	nt	-5	nt
CCc1ccc2c(CN(C)Cc3ccc(OC(F)F)c(OC)c3)cc(=O)oc2c1	-7	20	nt	-4	-10	-1	2	i
O=C(NCC1CCN(c2ccc(S(=O)(=O)N3CCOCC3)cc2)CC1)Nc1ccccc1F	4	8	14	-2	-4	2	-4	i
CC12CCC(=O)N1C(C(=O)NNC(=O)COc1ccccc1Cl)CS2 (stereo unspecified)	nt	-1	-4	2	4	nt	nt	nt
CCN(c1ccccc1)S(=O)(=O)c1ccc2c(c1)N(C(C)=O)CCO2	-8	-6	8	3	9	8	-1	i
O=C(NC(=S)N1CCCCCC1)C1CC1	9	-3	-14	-1	4	11	nt	i
CCOc1ccc(/C=C2\SC(=S)N(CC(=O)Nc3ccccn3)C2=O)cc1	55	-3	-1	-2	-1	0	10	i	eIF4H inh retest=11;PABP polyA inh retest=14
COc1ccc(NC(=O)Nc2nc(C)cc(C)n2)c(OC)c1	-8	-2	-4	2	1	-6	-22	i
Clc1ccc(-n2ncc3c(NCCCn4ccnc4)ncnc32)cc1	6	-30	72	-3	-2	-8	-6	i
CC1CCC(NC(=O)c2cccc(S(=O)(=O)N3CCN(C)CC3)c2)CC1 (stereo unspecified)	nt	-13	-4	9	6	nt	-11	i
COc1ccc(C2=C/C(=C/c3cccnc3)C(=O)O2)cc1OC	-9	23	-1	2	8	9	nt	i
CC(=O)NC(c1ccccc1)c1nc2ccccc2[nH]1 (stereo unspecified)	-9	-41	7	2	4	-8	-13	i
[N-]=C=C1C(=S)NC(=O)[C@H]([n+]2ccccc2)[C@H]1c1ccc(Cl)cc1	-4	-7	-14	-1	1	18	-3	i
COc1ccccc1C(CNC(=O)C(CCSC)NS(=O)(=O)c1ccccc1F)N1CCCC1 (stereo unspecified)	nt	3	1	-4	-1	nt	nt	i
Cc1cccc(C(=O)OCc2cc3ccccc3[nH]c2=O)c1	3	32	-5	7	2	-4	-23	i

Random draw from the library. Share with any hit: about 2.9%.
